# StopGo RLuc: Primary qHTS Assay for Foot and Mouth Disease Virus Antivirals against NCGC Sytravon and CBC Compound Libraries: Renilla Luciferase Signal; HEK cells with a luciferase reporter of 2A StopGo recoding; Potency, µM (highest dose often 57.5 µM), for the others: at the top dose signal change, negative = less light; actives 0.32% (n = 120,000); active means well fitted falling curve with a large enough effect; inconclusive means small, poorly fitted or top-dose-only effect; inactive means no such curve, though single readings can be large or run the other way; also: nearly all actives have a fitted effect of over 55% in size; overnight with compound
# StopGo FLuc: Primary qHTS Assay for Foot and Mouth Disease Virus Antivirals against NCGC Sytravon and CBC Compound Libraries: Firefly Luciferase Signal | HEK cells with a luciferase reporter of 2A StopGo recoding | Potency, µM (titrated, usually from 57.5 µM), for inactives: top-dose signal change, negative = less light | actives 0.23% (n = 120,000); active = well fitted falling curve with a large enough effect; inconclusive = small, poorly fitted or top-dose-only effect; inactive = no such curve, though single readings can be large or run the other way; also: nearly all actives have a fitted effect of over 60% in size; overnight with compound
# Numbers without * were called inactive; ? = inconclusive; & = joins results of further samples; [ ] = another dose, or the depositor's remark. % is scaled to controls: 0 for no effect and ±100 for the full control effect; potency is read from the fitted curve at half-maximal effect.
Molecule	StopGo RLuc	StopGo FLuc
Cc1ccc(C)c(N2CCN(C(=O)c3ccc(Nc4nc5ccccc5n5nnnc45)cc3)CC2)c1	-13.1%	0.2%
COC(=O)Cc1c(C)c2ccc(OCC(=O)OC(C)(C)C)cc2oc1=O	-1.3%	5.4%
Cc1ccc(-n2nc(CO)c(C(=O)NC(C)CCCc3ccccc3)n2)cc1 (stereo not given)	-30.4%	?
COCCNC(=O)CCC(=O)N1Cc2cccc(OC)c2Oc2ncccc21	9.6%	3.3%
CCN(CC)CCCNC(=O)Cn1ncc2c3ccccc3n(Cc3ccccc3)c2c1=O	-9.5%	-5.9%
Cc1ccc(C(CNC(=O)c2cc(=O)c3cc(Cl)c(C)cc3o2)N2CCCCC2)o1 (stereo not given)	-11.2%	-7.8%
CCCN(CCC)C(=O)CSc1nc2ccccc2c(=O)n1-c1ccccc1	31.6%[activator]	0.0%
CCOC(=O)C1=C(C)OC(N)=C(C#N)C1c1cccc2ccccc12 (stereo not given)	-0.9%	3.5%
Cc1cccc(C)c1-n1nnnc1SCc1nc2ccsc2c(=O)[nH]1	0.0%	19.1%
CCOc1ccccc1C(=O)Nc1c(NC)c2ccccc2oc1=O	8.3%&7.4%	1.7%&2.2%
CC(NC(=O)C(C)(C)C)c1ccc2c(c1)CCCC2 (stereo not given)	-4.0%	16.6%
C[N+](C)(C)CCSSCC[N+](C)(C)C	13.4%	21.4%
Cc1c(Cl)cccc1NCC(=O)N1CCN(S(C)(=O)=O)CC1	-6.0%	-0.2%
COc1ccc2c(-c3ccccc3)cc(SCC(=O)N3CCOC(C)C3)nc2c1 (stereo not given)	5.5%	19.6%
CCCNC(=O)C(=O)NCCc1c[nH]c2ccccc12	27.7%	43.9%
O=C(COc1ccc(Cl)cc1Cl)Nc1ccc2c(c1)CCN2C(=O)c1cccnc1	7.1%	65.1%[activator]

# Taken from above.
# Reading for `COCCNC(=O)CCC(=O)N1Cc2cccc(OC)c2Oc2ncccc21` under StopGo RLuc: 9.6%
# Reading for `C[N+](C)(C)CCSSCC[N+](C)(C)C` under StopGo RLuc: 13.4%

# The list continues:
Molecule	StopGo RLuc	StopGo FLuc
Cc1ccc(-n2ncc3c(N4CCN(C)CC4)ncnc32)cc1	-1.2%	-27.7%
O=C(/C=C/c1ccccc1)C1CC1	-17.1%	6.5%
O=C(Cn1nc(C(=O)O)c2ccccc2c1=O)Nc1ccccc1Cc1ccccc1	-1.9%	-0.9%
CC(CCN1CCC(C(O)(c2ccccc2)c2ccccc2)CC1)Oc1cccc(Cl)c1 (stereo not given)	-3.9%	-1.7%
O=c1c(Cl)c(Oc2ccc(C(F)(F)F)cc2)cnn1-c1ccc(C(F)(F)F)cn1	?	?
OCCCNC(=S)NC1CC2CCC1C2 (stereo not given)	5.1%	-1.9%
Cc1csc2nc(-c3ccc(NS(=O)(=O)c4cccc(F)c4)cc3)cn12	0.0%	27.2%
Cc1cc(O)c2c(C)c(CC(=O)NCc3cccc(Cl)c3)c(=O)oc2c1	35.4%[activator]	14.6%

# Brought forward from above: 3 entries, followed by the next part.
Molecule	StopGo RLuc	StopGo FLuc
OCCCNC(=S)NC1CC2CCC1C2 (stereo not given)	5.1%	-1.9%
Cc1csc2nc(-c3ccc(NS(=O)(=O)c4cccc(F)c4)cc3)cn12	0.0%	27.2%
Cc1cc(O)c2c(C)c(CC(=O)NCc3cccc(Cl)c3)c(=O)oc2c1	35.4%[activator]	14.6%
COc1ccc(N2C(=O)C(C)CS2(=O)=O)cc1S(=O)(=O)N(C)CCc1ccncc1 (stereo not given)	91.8%[activator]	4.3%
CC(C)C[C@@H]1NC(=O)[C@H]2C[C@@]3(C)c4ccccc4N[C@H]3N2C1=O	-4.3%	-12.3%
CCOc1ccc(C(=O)C(C)OC(=O)c2ccc(C(N)=O)cc2)cc1 (stereo not given)	-0.7%	22.6%
CN(C)CCC(=O)c1ccccc1	1.3%	3.6%
Cc1ccccc1C(=O)Nc1nnc(S(=O)(=O)N2CCc3ccccc32)s1	-7.6%	5.2%
CN(C)C1(CNC(=O)COc2cccc(Cl)c2)CCCCC1	-14.4%	-8.5%
CC(=O)C1=C(C)OC(=O)C1(NC(=O)c1ccccc1)C(F)(F)F (stereo not given)	7.5%	18.1%
CCN1CCN(c2nc3c(S(=O)(=O)c4ccc(Br)cc4)nnn3c3ccsc23)CC1	20.1%	21.4%

# Among those listed so far, 2 contain an NH in an aromatic ring:
Molecule	StopGo RLuc	StopGo FLuc
Cc1cccc(C)c1-n1nnnc1SCc1nc2ccsc2c(=O)[nH]1	0.0%	19.1%
CCCNC(=O)C(=O)NCCc1c[nH]c2ccccc12	27.7%	43.9%

# Next records follow.
Molecule	StopGo RLuc	StopGo FLuc
COC(=O)c1sccc1S(=O)(=O)N(CC(=O)Nc1cc(C)ccc1C)c1ccc(C)c(C)c1	85.6%[activator]	-26.6%
CN(C)C(=O)c1ccc(NC(=O)c2ccc(-c3ccccc3)cc2)cc1	2.4%	-8.6%
COc1cccc(C(=O)/C(=C/c2ccncc2)c2nc3ccccc3o2)c1	?	-103.8%
CCOC(=O)c1ccc(NCc2ccc(Cl)cc2Cl)cc1	4.7%	24.2%
Cc1ccc(Cc2nc3ccccc3nc2SCC(=O)N2CCNC2=O)cc1	-4.6%	-11.9%
Fc1ccccc1COc1ccccc1CNCC1CCNCC1	-26.5%	-23.2%
CCc1ccc(Nc2nnc(-c3cc4cc(OC)ccc4oc3=O)s2)cc1	-9.0%	5.6%
CCCCN(C1CCS(=O)(=O)C1)S(=O)(=O)c1ccc(OC)cc1 (stereo not given)	2.0%	-12.6%
O=S1(=O)c2ccc(N3CCN(Cc4ccccc4F)CC3)cc2Oc2ccccc2CN1Cc1cn(Cc2ccc(C(F)(F)F)cc2)nn1	34.3%[activator]	10.5%
CC1(C)CC(=O)C2=C(C1)OC(N)=C(C#N)C2c1cccnc1 (stereo not given)	2.1%	-0.4%
NC(CO)c1ccc(OCc2ccccc2)cc1 (stereo not given)	17.6%	161.8%[activator]
Cc1nn(CC(=O)Nc2ccc(O)cc2)c(=O)c2ccccc12	11.6%	13.4%
O=c1c(-c2ccccc2)coc2cc(OCCN3CCN(c4ccccc4)CC3)ccc12	4.5%	0.0%
COc1ccc(NC(=O)c2ccc(Cl)cc2)c2cccnc12	-12.0%	42.5%[activator]
Cn1c(=O)sc2cc(NS(=O)(=O)c3ccc(C(C)(C)C)cc3)ccc21	-5.4%	1.0%
COCCNc1nc2c(c(=O)n(C)c(=O)n2C)n1Cc1cc(OC)ccc1Cl	-4.9%	6.2%
Brc1cccc(-c2nnn3c2nc(NCc2ccc4c(c2)OCO4)c2ccccc23)c1	-12.7%	38.9%[activator]
COc1ccc2c(CC(=O)OCC(=O)c3ccccc3)coc2c1	1.8%	7.8%
O=C1Cc2cc(S(=O)(=O)NCc3ccco3)cc3c2N1CCC3	135.9%[activator]	15.8%
O=C(CSCc1c(Cl)cccc1Cl)NCc1ccc2c(c1)OCO2	0.0%	0.0%
COC(=O)c1cc(COC(=O)C2COc3ccccc3O2)oc1C (stereo not given)	6.3%	-0.2%
CCOC(=O)C1=C(CN2CCN(C(=O)OC(C)(C)C)CC2)NC(=O)NC1c1ccccc1 (stereo not given)	-17.3%	-12.7%
CCOc1ccc(-c2nn(-c3ccc(F)cc3)c3c2cnc2ccc(F)cc23)cc1	-4.4%	0.8%
CCCCN1CC(c2nc3ccccc3n2CCCCOc2cc(C)cc(C)c2)CC1=O (stereo not given)	-22.8%	-38.4%
Cc1ccc(Nc2nc(-c3ccc([N+](=O)[O-])cc3)cs2)cc1	?	109.9%[activator]
O=C(NC1CC(=O)N(c2ccc(F)cc2)C1)c1ccc(S(=O)(=O)N2CCCCC2)cc1 (stereo not given)	-2.8%	-23.9%
Cc1ccn2c(Nc3c(C)cccc3C)c(-c3ccsc3)nc2c1	-17.1%	-11.4%
Cc1ccc(C(=O)CC(C(=O)O)c2c[nH]c3ccccc23)cc1 (stereo not given)	-0.1%	37.4%[activator]
COc1ccc(OC)c(NC(=O)CN(C)S(=O)(=O)c2ccc(C(=O)N3CCOCC3)s2)c1	3.5%	-10.1%
CCOc1ccc(NC2=CC(=O)CC(C)(C)C2)cc1	73.0%[activator]	68.6%[activator]
CC(=O)Oc1ccc2c(C)c(CC(=O)NCCc3ccccc3F)c(=O)oc2c1OC(C)=O	-22.6%	14.9%
CC(C)Cn1c(-c2ccccc2Cl)nc2ccccc21	36.9%[activator]	37.7%[activator]

# Other entries
Structure	StopGo RLuc	StopGo FLuc
COC(=O)c1ccc(Oc2c(C)oc3cc(OC(=O)c4ccccc4F)ccc3c2=O)cc1	-10.5%	0.6%
CCOC(=O)c1cc2c(=O)n3ccccc3nc2n(Cc2ccco2)c1=NC(=O)c1cccc(F)c1	71.8%[activator]	10.5%
COc1ccc(CCNC(=O)CCCn2c(=O)c3ccccc3n(Cc3c(C)cc(C)cc3C)c2=O)cc1OC	-7.5%	-3.1%
CCCCn1cnc2c1c(=O)n(CC(=O)Nc1cc(F)ccc1C)c(=O)n2CCCC	-13.4%	-11.2%
Clc1ccc(Sc2ccnc3cc(Cl)ccc23)cc1	0.1%	87.0%[activator]
COc1cc2[nH]c(=O)n(CCCCCC(=O)N3CCN(c4cccc(C(F)(F)F)c4)CC3)c(=O)c2cc1OC	6.7%	-6.9%
CCN(CC)S(=O)(=O)c1ccc2c(c1)CC(C(=O)NCCc1ccc(SC)cc1)N2C(C)=O (stereo not given)	114.6%[activator]	6.7%
C=CCc1c(C)nc2nc(SCC(=O)Nc3ccc(C)c(C)c3)nn2c1C	-14.4%	-25.5%
CCN1CCCC1CNC(=O)c1cccc2c(=O)c(C)c(-c3ccccc3)oc12 (stereo not given)	-15.9%	-14.1%
COc1ccc(-c2ccc(-c3noc(-c4cc(OC)cc(OC)c4)n3)c(OC)n2)cc1	139.8%[activator]	6.8%
CCc1ccc(OCC(=O)Nc2ccc3oc(=O)ccc3c2)cc1	-7.5%	-0.7%
CCOC(=O)c1c(C)[nH]c(C)c1S(=O)(=O)N(C)CC(=O)Nc1ccc(C)cc1C	42.4%&36.9%[activator]	-14.0%&-13.8%
Cc1ccc(N(C)C(CNS(=O)(=O)c2ccccc2)c2ccccc2)cc1 (stereo not given)	268.7%[activator]	-18.8%
Cc1ncsc1C(=O)NC(C)c1ccc(F)cc1 (stereo not given)	5.8%	-4.3%
N#Cc1ccc(NC(=O)C2CC(c3ccccc3)=NO2)cc1 (stereo not given)	?	18.4%
O=C(NCc1ccc(-n2cccn2)cc1)c1ccc(Cl)cc1F	241.0%[activator]	287.4%[activator]
COc1ccccc1CNC(=O)CCc1nnc2ccc(NCc3ccccc3Cl)nn12	3.6%	-2.7%
CC1CCN(c2nc3c(S(=O)(=O)c4ccccc4)nnn3c3ccsc23)CC1	-7.0%	-26.0%
COc1cccc(C(CNC(=O)CCc2nnc(-c3ccsc3)o2)N(C)C)c1 (stereo not given)	-8.4%	11.2%
COc1ccc(O)c(C(=O)/C=C/c2ccc(C)cc2)c1	35.4%	29.7%
CCC(CC)Nc1nnc(C)c(C)c1C#N	-6.1%	-9.2%
Cc1cc(Nc2cccc(Cl)c2)nc2ccc(NC(=O)C3CCC(C)CC3)cc12 (stereo not given)	0.0%	16.3%
Cc1ccc(C2N3CC4(C)CN2CC(c2ccccc2)(C3)C4=O)cc1 (stereo not given)	-4.6%	-4.0%
Cc1ccccc1NC(=O)Cn1c(SCC(=O)Nc2ccc(F)cc2)nc2ccccc21	-8.0%	-4.6%
CC(C)C(c1ccc(O)cc1)c1ccc(O)cc1	0.9%	-2.0%
COc1ccc(C2C(C#N)=C(N)OC(C(C)(C)C)=C2C#N)cc1 (stereo not given)	18.8%	60.6%[activator]
CCc1ccccc1NC(=O)Cn1nnc(C(=O)NCc2ccco2)c1N	50.6%[activator]	70.2%[activator]
O=C(NCC(F)(F)F)c1cccnc1Nc1cccc(C(F)(F)F)c1	-15.4%	-1.6%
O=C(Nc1ccccc1F)c1nc(SCc2ccc(F)cc2)ncc1Cl	-14.8%	-15.0%
CCN(CC)c1ccc(C=Nc2ccc(F)cc2)cc1	3.4%	45.1%[activator]
CCCNc1nc2c(c(=O)n(C)c(=O)n2C)n1CC(O)COc1ccccc1 (stereo not given)	-4.4%	2.4%
O=C(/C=C/c1ccc(OCc2ccccc2)cc1)c1cccnc1	?	79.8%[activator]
COC(=O)c1ccccc1OCc1ccccc1	15.4%	25.8%
C#Cc1cccc(Nc2ncnc3cc(OCCOC)c(OCCOC)cc23)c1	-10.6%	-21.3%
CCC1=C(c2ccc(C)cc2)S(=O)(=O)N=C1N1CCC(C(=O)Nc2ccc(OC)cc2OC)CC1	42.6%[activator]	-3.7%
CCOc1ccc(CNC(=O)c2cc3c(=O)oc4ccc(C)cc4c3s2)cc1	-4.4%	-21.4%
CCn1c(=O)cc(OCC(=O)N2CCN(c3ccc(C)cc3)C(C)C2)c2ccccc21 (stereo not given)	2.5%	-19.4%
Cc1cccc(C)c1OCCSc1nc2ccccc2n1CC(=O)O	34.7%[activator]	65.6%[activator]

# Arranged by number of heavy atoms (descending): some entries from above.
Structure	StopGo RLuc	StopGo FLuc
C#Cc1cccc(Nc2ncnc3cc(OCCOC)c(OCCOC)cc23)c1	-10.6%	-21.3%
O=C(Nc1ccccc1F)c1nc(SCc2ccc(F)cc2)ncc1Cl	-14.8%	-15.0%
O=C(NCC(F)(F)F)c1cccnc1Nc1cccc(C(F)(F)F)c1	-15.4%	-1.6%

# Source: PubChem BioAssay
